# S aureus helic: inhibitors of S. aureus replicative helicase, primary screen, biochemical, fluorescence unwinding readout; AID 485395, 2010; purified S. aureus helicase, fluorescence unwinding assay; about half of the hits fall short of the stated cut; 120,000 tested, 0.05% active; inhibition, %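 (tested at about 80 µM)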; replicative DNA helicase (DnaC/DnaB), Staphylococcus aureus;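 active = both duplicates at 50% or more, or one of them with a favoured structure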;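 also: 0% = mean of negative control wells and 100% = mean of positive control wells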
# MgrA DNA FP: S. aureus MgrA activity modulators, primary screen, biochemical, S. aureus Newman, fluorescence polarization; MgrA-DNA binding; inhibition, %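 (about 10 µg/mL by stock and volumes)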; 84,000 tested, 0.13% active; AID 602314, 2012;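 active = above 50% in either of two replicates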;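 also: 0% = protein plus DNA without compound and 100% = DNA alone without protein; higher means less MgrA bound to DNA so lower polarization; one replicate is shown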
# An asterisk follows results filed as active; / = not tested or not shown. These rows are one share of the data. The share of hits here may be higher or lower than overall.
S aureus helic	MgrA DNA FP	SMILES
1	/	COc1ccc(C(=O)NNc2ncnc3c2cnn3-c2ccc(F)cc2)cc1
6	0.7	CN(C(=O)C1c2ccccc2C(=O)N2CCc3ccccc3C12)C1CCCCC1 (stereo not drawn)
-12	/	CCOC(=O)N1CCC(NC(=O)CN2C(=O)CCSc3ccccc32)CC1
-5	/	CCn1c(O)c(C=NCCn2c(C)nc3ccccc32)c(=O)n(CC)c1=S
-7	/	COc1cc(C(=O)NNC2=CC(=O)CC(C)(C)C2)cc(OC)c1OC
-18	-0.9	CC1(C)CNC(=O)C=C(c2ccccc2)C1
-2	7.9	COc1ccc(C=Nc2ccc(OCC(O)CN3C(C)CCCC3C)cc2)cc1OC (stereo not drawn)
/	4.0	CNC(=S)N/N=C/c1cc(Br)ccc1O
26	/	COc1cccc(CNC(=O)c2cn(C)c(=O)c3c2c2ccccc2n3C)c1
/	-3.3	Cc1nc2nc(C(F)(F)F)cc(=O)n2[nH]1
/	2.6	O=C(N=Nc1c(O)[nH]c2ccccc12)c1ccccc1
-23	/	COc1ccc(N2C(=NC(=O)CCCC(=O)O)SC3CS(=O)(=O)CC32)cc1 (stereo not drawn)
-5	-1.6	O=C(Nc1ccc(Cl)cc1)Nc1ccc(N2CCOCC2)cc1
-30	/	O=C(c1ncn[nH]1)N(Cc1cc2ccccc2[nH]c1=O)c1ccccc1
3	/	Cc1cccn2c(=O)c(C=C(C#N)C#N)c(N3CCCC3)nc12
1	0.9	CCOC(=O)c1c(NC(=O)NCc2ccccc2)sc2c1CCC2
-4	1.4	COc1ccc(C(=O)Nc2cccc(-c3nc4ccccc4s3)c2)cc1
49*	/	Cc1nc(-c2c[nH]c(C(=O)O)c2)cs1
/	-2.5	O=C(Nn1c(-c2cccs2)nc2ccccc2c1=O)c1cc([N+](=O)[O-])cc([N+](=O)[O-])c1Cl
-3	-2.8	CC(C)(C)c1csc(NC(=O)CSC2=NCCS2)n1
4	-0.3	OC(c1ccccc1)C(O)(c1ccccc1)c1ccccc1 (stereo not drawn)
10	/	O=C(O)c1cnn(-c2ccc(Cl)cc2)c1C1CCNCC1
12	/	COC(=O)C(=NNc1ccc(SC(F)(F)F)cc1)C(=O)OC
1	-2.8	O=C(CN1CCC(n2cnc3cc(F)ccc32)CC1)NCc1ccc(F)cc1
-19	/	Cc1cc2ccccc2n1CCNC(=O)c1ccc(Br)o1
11	-0.4	CCOc1cccc(NC(=O)CC#N)c1
13	1.0	CCc1ccc(NC(=O)C(CC)Sc2nc3ccsc3c(=O)n2C2CC2)cc1 (stereo not drawn)
13	1.1	CC(CCc1ccccc1)NCc1c(C(=O)O)[nH]c2ccccc12 (stereo not drawn)
15	/	CCCn1c(CCC(=O)NCCc2ccc(OC)cc2OC)nc2cccnc21
8	/	N#Cc1ccc(Sc2nc3ccccc3[nH]2)cc1C#N
/	0.5	Cn1c(Sc2ncccc2[N+](=O)[O-])nnc1C(F)(F)F
8	/	COCCNc1nnc(SCN2C(=O)c3ccccc3C2=O)s1
20	/	NC(=O)CN1C(C(=O)c2ccccc2)=C(N2CCOCC2)c2ccccc2S1(=O)=O
0	0.6	COc1ccc(C(=O)C2CCN(CC(=O)NCc3ccc(F)cc3)CC2)cc1
-1	/	Cc1ccc(-c2csc(/C(C#N)=C(\O)CSc3ncn[nH]3)n2)cc1
10	1.8	Oc1[nH]c2ccccc2c1C=NC1CCCC1
-10	/	C1C2C3C4OC5C3C1C1C2C4C51 (stereo not drawn)
4	8.8	CCc1c(C#N)c(SCC(=O)c2cc(C)n(CCOC)c2C)nc2c1C(=O)CC(C)(C)C2
10	/	NS(=O)(=O)c1ccc(-c2ccc(/C=N/NC(=O)c3cccnc3)o2)cc1
/	-0.5	O=C(Nc1ccc(OC(F)(F)F)cc1)N1CCN(C(c2ccccc2)c2ccccc2)CC1
13	-0.8	COc1ccc(C(=O)OCC(=O)N2CC(C)CC(C)C2)cc1 (stereo not drawn)
/	0.8	C1N2CN3CN1CN(C2)C3
5	/	COc1cc(C(=O)N2CCN(c3ccc(NCc4ccccc4)nn3)CC2)cc(OC)c1OC
3	0.5	O=C(c1cc2ccccc2oc1=O)N(Cc1ccc2c(c1)OCO2)CC1CCCO1 (stereo not drawn)
-11	/	COc1cccc(CNC(=O)Cn2ncc3c4ccccc4n(Cc4ccccc4F)c3c2=O)c1
1	0.8	Cc1cc(OCCCC(=O)O)cc(C)c1Cl
9	/	CN1CCN(CCCNC(=O)c2ccc3c(Cl)c4c(nc3c2)CCCC4)CC1
11	/	CCC(c1ccccc1)c1nc(-c2ccncc2)no1 (stereo not drawn)
10	14	CN1C(=O)NC(=O)/C(=C\C=C\c2ccccc2)C1=O
1	0.8	Nc1nc2ccccc2n1C(=O)c1ccco1
1	/	CN(CC(=O)NCC1CCCCC1)S(=O)(=O)c1ccc(F)cc1
-6	/	C=C(C)CN(CC)C(=O)Cn1c(NCc2ccccc2)nc2ccccc21
/	0.7	CCc1ccn2cc(-c3ccc(F)cc3)nc2c1
10	/	CCC1=C(c2ccc(C)cc2)S(=O)(=O)NC1=NCC(=O)NC1CC1
-35	/	Cc1ccc(C(=O)N[C@@H](C)c2nc3ccccc3[nH]2)cc1
-16	/	O=c1c(Cl)c(Cl)cnn1CN1CCN(Cc2ccc3c(c2)OCO3)CC1
15	/	Nc1nnc2c(n1)-c1ccccc1C2=O
10	/	Cc1cccc(N(C)C(=O)C2CCCN2S(=O)(=O)c2cccc3nsnc23)c1 (stereo not drawn)
/	0.2	CSc1nnc(-c2cccs2)n1C
-12	/	COc1cc(OC)c(C(=O)OCC(=O)c2c[nH]c3ccccc23)cc1OC

# Next section:
S aureus helic	MgrA DNA FP	SMILES
/	0.3	COc1ccc(CCN2C(=O)CSC2=S)cc1OC
/	-1.5	NC(=S)c1cc(C(F)(F)F)cc(C(F)(F)F)c1
9	/	C=CCOc1ccc(CN(C)Cc2cccc(S(=O)(=O)N(C)C)c2)cc1
26	/	O=C(C(Cc1ccccc1)N1Cc2ccccc2C1=O)N1CCNCC1 (stereo not drawn)
10	3.3	N#CC(NC(=O)c1ccccc1Cl)c1ccc(Cl)cc1 (stereo not drawn)
-16	4.4	CN(C)c1ccc(-c2nnc(-c3ccc(S(=O)(=O)C(F)F)cc3)o2)cc1
-13	/	CCC(CO)Nc1ncnc2c1cnn2-c1ccc(Cl)cc1 (stereo not drawn)
/	1.4	CCCCCCCCCCCCCCCCOP(=O)([O-])OCC[N+](C)(C)C
/	0.2	O=S(=O)(NCc1ccc(N2CCOCC2)cc1)c1ccc(C(F)(F)F)cc1
-24	/	CCc1ccccc1N(C)S(=O)(=O)c1c(C)noc1/C=C/N(C)C
9	0.6	COc1cccc(C=Nc2cnn(C)c2C(N)=O)c1O
17	/	Cc1cn(S(=O)(=O)c2ccccc2)cn1
/	-3.2	CCCCc1c(COC)nc(-c2ccc(Cl)cc2)[nH]c1=O
-4	-0.1	CC(C)(C)NC(=O)c1cc(NC(=O)C(F)(F)F)cc(NC(=O)C(F)(F)F)c1
-6	/	COc1cc2c(C#N)c(N3CCCCC3)nc3c2c(n1)NC1(N3)C(=O)Nc2ccccc21 (stereo not drawn)
1	/	Nc1ccnc(C(=O)O)c1
-1	0.1	CCC1CCCCN1C1CC(=O)N(c2ccc(NC(C)=O)cc2)C1=O (stereo not drawn)
-73	/	CC1=CC(=C(C#N)C#N)CC(C)(C)C1
-15	/	O=C(c1ccccc1)C1CCN(C(=O)Nc2ccccc2)CC1
18	2.7	C#CCn1c(O)c(N=NC(=O)c2ccccc2-n2cccc2)c2ccccc21
-2	/	COC(=O)c1ccc(OC(=O)CCc2nc3cc(S(=O)(=O)N4CCOCC4)ccc3n2C)cc1
0	3.0	Cc1cccc(C(=O)Sc2cccccc2=O)c1
4	1.1	O=C1CCCC(O)=C1C1(O)C(=O)c2ccccc2C1=O
-4	/	COC(=O)c1cn(CC(N)=O)c2nc(C)ccc2c1=O
16	/	CCOc1cc(C2c3c(oc4cc(C)cc(C)c4c3=O)C(=O)N2CCCO)ccc1O (stereo not drawn)
20	2.3	Cc1cc2cc(CNC(=O)c3ccccc3C(F)(F)F)ccc2[nH]1
-14	/	CC1CC(C)CN(c2ncnc3c2cnn3-c2ccccc2)C1 (stereo not drawn)
3	-1.2	O=C(CC12CC3CC(CC(C3)C1)C2)NCc1ccco1
-1	/	CCN(CC(=O)NCc1ccc(F)cc1)c1ccc(S(=O)(=O)N(CC)CC)cn1
-4	-2.9	O=C(O)CC(NC(=O)c1ccccc1)c1ccccc1 (stereo not drawn)
-7	/	CN(C(=O)C(c1ccccc1)c1ccccc1)C1CCS(=O)(=O)C1 (stereo not drawn)
4	/	CC(NC(=O)C1CCCN1C(=O)OCc1ccccc1)c1ccccc1 (stereo not drawn)
15	-2.6	O=C1CSC(=O)N1Cc1ccccc1
12	/	COc1ccc(Br)cc1CN1CCC(N2CCN(CCO)CC2)CC1
1	0.8	Cc1ccc(N/C=C2\C(=O)C3(C)CCC2C3(C)C)cc1C (stereo not drawn)
10	/	CC1(C)CC(=O)C2=C(C1)NC1=C(C(=O)c3ccccc31)C2c1cccnc1 (stereo not drawn)
6	/	CN1C(=O)N(C)C(=O)C(CC(=O)N2CCCc3ccccc32)(CC(=O)N2CCCc3ccccc32)C1=O
/	1.5	CCn1c2ccc(Cl)cc2c2cc(Cl)ccc21
3	/	COc1cc2c(cc1OC)C(c1ccccc1)N(C(=O)COC(=O)C1CC1)CC2 (stereo not drawn)
3	/	CC(=O)N1CCCc2ccc(NC(=O)c3ccccc3)cc21
8	/	CCC(CC)c1nnc(NC(=O)CN2C(=O)C3CC=CCC3C2=O)s1 (stereo not drawn)
8	/	O=c1[nH]nc(CSc2ccc(Cl)cc2)n1-c1ccccc1
-11	/	CC(=O)NC(CC(=O)N1CCN(c2ccccc2)CC1)c1ccccc1 (stereo not drawn)
3	3.2	Cc1cc(C)cc(C(=O)NC(=S)Nc2ccc3[nH]c(=O)[nH]c3c2)c1
4	/	CCNc1ncnc2scc(-c3ccccc3)c12
-4	0.8	NS(=O)(=O)c1ccc(Cl)c(C(=O)Nc2ccc(Cl)cc2)c1
17	-0.8	CCCNS(=O)(=O)c1ccccc1
/	-0.2	Cc1ccc(S(=O)(=O)NC(=O)Nc2cccnc2)cc1
1	1.2	CCC(=O)NC1CCN(C(=S)NC)CC1
10	/	CCCn1c(NC(=O)C2CCCCC2)nc2ccccc21
-51	/	CC1=CSC2=NC(=O)/C(=C\c3cccn3-c3ccccc3)C(=N)N12
8	/	Cc1ccc(N2C(=O)/C(=C\c3ccc4c(c3)OCO4)N=C2SCC(=O)NCC2CCCO2)cc1 (stereo not drawn)
2	-0.1	Cc1ccccc1-c1nnc(SCC(=O)N2CCCc3ccccc32)n1C
/	0.3	O=c1ccn(-c2ccc(F)cc2)nc1-c1ccnc(=S)[nH]1
13	/	COc1ccc2cnn(-c3nc4ccccc4s3)c(=O)c2c1OC
/	89*	Cc1ccc(C)n1-c1sccc1C(=O)O
15	/	Cc1oc(-c2cccc(Cl)c2)nc1CN1CCCC(C(=O)N2CCN(c3cccc(Cl)c3)CC2)C1 (stereo not drawn)
38	/	CCOc1ccc(C(C)(C)C)cc1S(=O)(=O)Nc1ccc(Cl)cn1
-6	-2.1	Cc1cccc(NC(=O)C(NC(=O)c2ccc(C34CC5CC(CC(C5)C3)C4)cc2)C(C)C)n1 (stereo not drawn)
1	/	COC(=O)C(C(=O)OC)c1cc(Br)c2noc3c2c1C(=O)c1ccccc1-3

# The listing continues.
S aureus helic	MgrA DNA FP	SMILES
26	11	O=C(CSc1ccc(Cl)cc1)c1ccco1
-1	/	CN(C)C1(CNC(=O)NCC2(N(C)C)CCCCC2)CCCCC1
/	-0.2	CC(C)CNC(=S)N1CCCC1
7	-1.6	CCCCc1ccc(N2C(=O)CS/C2=C(/C#N)S(=O)(=O)c2ccccc2)cc1

# 22 entries from above in a different format:
SMILES	S aureus helic	MgrA DNA FP
CC(=O)NC(CC(=O)N1CCN(c2ccccc2)CC1)c1ccccc1 (stereo not drawn)	-11	/
Cc1cc(C)cc(C(=O)NC(=S)Nc2ccc3[nH]c(=O)[nH]c3c2)c1	3	3.2
CCNc1ncnc2scc(-c3ccccc3)c12	4	/
NS(=O)(=O)c1ccc(Cl)c(C(=O)Nc2ccc(Cl)cc2)c1	-4	0.8
CCCNS(=O)(=O)c1ccccc1	17	-0.8
Cc1ccc(S(=O)(=O)NC(=O)Nc2cccnc2)cc1	/	-0.2
CCC(=O)NC1CCN(C(=S)NC)CC1	1	1.2
CCCn1c(NC(=O)C2CCCCC2)nc2ccccc21	10	/
CC1=CSC2=NC(=O)/C(=C\c3cccn3-c3ccccc3)C(=N)N12	-51	/
Cc1ccc(N2C(=O)/C(=C\c3ccc4c(c3)OCO4)N=C2SCC(=O)NCC2CCCO2)cc1 (stereo not drawn)	8	/
Cc1ccccc1-c1nnc(SCC(=O)N2CCCc3ccccc32)n1C	2	-0.1
O=c1ccn(-c2ccc(F)cc2)nc1-c1ccnc(=S)[nH]1	/	0.3
COc1ccc2cnn(-c3nc4ccccc4s3)c(=O)c2c1OC	13	/
Cc1ccc(C)n1-c1sccc1C(=O)O	/	89*
Cc1oc(-c2cccc(Cl)c2)nc1CN1CCCC(C(=O)N2CCN(c3cccc(Cl)c3)CC2)C1 (stereo not drawn)	15	/
CCOc1ccc(C(C)(C)C)cc1S(=O)(=O)Nc1ccc(Cl)cn1	38	/
Cc1cccc(NC(=O)C(NC(=O)c2ccc(C34CC5CC(CC(C5)C3)C4)cc2)C(C)C)n1 (stereo not drawn)	-6	-2.1
COC(=O)C(C(=O)OC)c1cc(Br)c2noc3c2c1C(=O)c1ccccc1-3	1	/
O=C(CSc1ccc(Cl)cc1)c1ccco1	26	11
CN(C)C1(CNC(=O)NCC2(N(C)C)CCCCC2)CCCCC1	-1	/
CC(C)CNC(=S)N1CCCC1	/	-0.2
CCCCc1ccc(N2C(=O)CS/C2=C(/C#N)S(=O)(=O)c2ccccc2)cc1	7	-1.6
